LDHA inh = blocks human lactate dehydrogenase A. P00338. activity change, % (values are at about 110 or 230 µM). 480,000 tested, 0.15% active. AID 1347041. purified LDHA, NADH/diaphorase-resazurin fluorescence; stronger effect = lower value; in the data active = activity change below about -30%; inconclusive = mostly about -25% to -30%;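 also: plate controls were DMSO wells for no effect and wells without enzyme for full effect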
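Human LDH5 at 2 nM final in Tris HCl pH 7.4 with 0.06 mM NADH and 0.2 mM pyruvate, reacted 5 minutes at room temperature. Remaining NADH coupled via diaphorase/resazurin; resorufin fluorescence read at 0 and 20 minutes, normalized to enzyme-free and DMSO wells.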
POLB inh = blocks human DNA polymerase beta activity | P06746 | Pol beta primer extension/strand displacement, fluorescence kinetic | Potency, µM (top dose mostly 114 µM), inactives show top-dose activity change, negative = inhibition, most hits filed as inhibitors | 340,000 tested, 1.3% active | AID 485314; also: potency is read from the fitted curve at half-maximal effect; % is scaled to controls: 0 for no effect and ±100 for the full control effect
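Kinetic readout of DNA synthesis with strand displacement by Pol beta. Compound and 10 nM enzyme sit 15 min at room temperature; 50 nM substrate starts the reaction, read immediately and at 10 min.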
POLK inh = DNA polymerase kappa (human) inhibition; Q9UBT6; purified Pol kappa, fluorescent DNA synthesis assay, 10 min; Potency, µM (highest dose often 107 µM), for the others: top-dose activity, negative = inhibition, most hits filed as inhibitors; 400,000 tested, 0.53% active; AID 588579; also: potency is read from the fitted curve at half-maximal effect; % is scaled to controls: 0 for no effect and ±100 for the full control effect
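10 nM Pol kappa preincubated 15 min at room temperature with compounds, then reaction started with substrate at 50 nM final. Fluorescence read kinetically at 0 and 10 min; buffer-only wells served as negative control.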
Anesthetic bind = candidate novel general anesthetic via apoferritin binding; 350,000 tested, 0.074% active; apoferritin/1-aminoanthracene competitive binding, fluorescence; Potency, µM (titrated, usually from 77.5 µM), inactives show at the top dose activity change, negative = displacement, most hits filed as inhibitors; P02791; also: potency is read from the fitted curve at half-maximal effect; % is scaled to controls: 0 for no effect and ±100 for the full control effect; nearly all actives have a fitted effect of over 20% in size
Target sequence (P02791 2-175 limits assumed): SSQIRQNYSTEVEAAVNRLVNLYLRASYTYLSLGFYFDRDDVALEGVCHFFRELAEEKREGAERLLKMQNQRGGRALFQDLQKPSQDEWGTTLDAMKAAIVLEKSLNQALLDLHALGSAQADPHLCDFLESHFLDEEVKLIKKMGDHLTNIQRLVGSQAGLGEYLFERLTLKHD
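10 uM apoferritin + 50% sat. 1-AMA, PBS; cpd 10 min RT; Ex380/Em535 endpoint; normalized to free probe vs complex; 4-param Hill fit; propofol titration as pos. ctrl.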
ERG-DNA inh = blocks human ERG Ets domain binding to DNA; P11308; Potency, µM (titrated, usually from 76.9 µM), for inactives: at the top dose FP activity, negative = inhibition, usual class: inhibitors; fluorescence polarization, His-ERG Ets domain / labelled DNA; 370,000 tested, 0.028% active; AID 624246; active = well fitted inhibition curve with a large enough effect in the polarisation, with a control signal flat; inconclusive = small, poorly fitted or top-dose-only effect, or effect the other way, or a change in a side signal; inactive = no such curve, though single readings can be large or run the other way; the % refers to the polarisation;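 also: polarization taken with two DNA probes labelled with fluorescein and Texas red; potency is read from the fitted curve at half-maximal effect; % of control where 0% means no effect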
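His-tagged ERG Ets domain (1 uM in the protein solution; 300mM KCl, 50mM Tris-HCl, 1mM EDTA, 1mM DTT, pH 7.5) received compound, then a probe mix of 5 nM fluorescein-DNA and 100nM Texas-615-DNA. Fluorescence polarization was read for both dyes.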
Numbers without * were called inactive; ? = inconclusive; . = not tested or not shown; ! = not confirmed by another sample; [ ] = dose if it differs, or a comment. Unless noted, calls follow the shape of the dose curve; as a rule, active = well fitted curve in the direction sought with a large enough effect; inconclusive = small, poorly fitted or top-dose-only effect, or another doubt; inactive = no such curve, though single readings can be large; an effect the other way counts as inactive or inconclusive. These rows are one share of the data; count on the stated rates, not on these rows.

Order of values: LDHA inh | POLB inh | POLK inh | Anesthetic bind | ERG-DNA inh
CCCCCC[N+](=O)[O-]
 : -8.2 | . | -26.2% | . | -3.0%
CN1C(=O)/C(=C/C=C/c2ccco2)C(=O)NC1=S
 : -1.0 | ? | 25.1µM* | -7.6% | 84.3%[activator]
CN[C@@H](C)[C@@H](O)c1ccccc1
 : -10.3 | -11.8% | -13.7% | -4.8% | -1.7%
C[C@]12CCC(=O)C=C1CCC1C2CC[C@@]2(C)C1CC[C@@H]2O (some centres undefined)
 : 0.8 | . | 2.8% | . | -6.7%
C=C(C)[C@H]1Cc2c(ccc3c2O[C@@H]2COc4cc(OC)c(OC)cc4[C@@H]2C3=O)O1
 : . | ? | -4.8%[60.1 µM] | . | .
C[C@]12CCC3C(CC[C@H]4CC(=O)CC[C@]34C)C1CCC2=O (some centres undefined)
 : -11.4 | . | 8.0% | . | 6.3%
CC(N)C(O)c1ccc(O)c(O)c1 (centres undefined)
 : . | . | 3.16µM*! | 0.3% | .
C[C@]12CC[C@H](O)CC1=CCC1C2CC[C@]2(C)C(=O)CC[C@@H]12 (some centres undefined)
 : . | 10.7%[57.1 µM] | 3.4%[60.1 µM] | -8.5% | .
CCCN1CCC[C@@H]2Cc3cn[nH]c3C[C@H]21
 : . | . | -4.4%[60.1 µM] | 1.1% | .
CN1C[C@H](CNC(=O)OCc2ccccc2)C[C@@H]2c3cccc4c3c(cn4C)C[C@H]21
 : 0.6 | 15.0% | ? | 0.1% | -4.9%
O=P(C(Cl)Cl)(N1CCCCC1)N1CCCCC1
 : -7.4 | 15.5% | -16.7% | -10.2% | -2.6%
CN1CC[C@]23c4c5ccc(O)c4OC2C(O)C=CC3[C@H]1C5 (some centres undefined)
 : -4.2 | . | -27.6% | . | 3.1%
O=C(O)CCCOc1ccc(Cl)cc1Cl
 : -8.7 | . | 8.6% | -1.1% | 8.4%
CN1[C@@H]2CC[C@H]1CC(O)C2 (some centres undefined)
 : . | . | -2.1%[12 µM] | 2.3%[29.3 µM] | .

Ordered by formula weight (high to low): some entries from above
Order of values: LDHA inh | POLB inh | POLK inh | Anesthetic bind | ERG-DNA inh
CN1C[C@H](CNC(=O)OCc2ccccc2)C[C@@H]2c3cccc4c3c(cn4C)C[C@H]21
 : 0.6 | 15.0% | ? | 0.1% | -4.9%
C=C(C)[C@H]1Cc2c(ccc3c2O[C@@H]2COc4cc(OC)c(OC)cc4[C@@H]2C3=O)O1
 : . | ? | -4.8%[60.1 µM] | . | .
O=P(C(Cl)Cl)(N1CCCCC1)N1CCCCC1
 : -7.4 | 15.5% | -16.7% | -10.2% | -2.6%
C[C@]12CCC3C(CC[C@H]4CC(=O)CC[C@]34C)C1CCC2=O (some centres undefined)
 : -11.4 | . | 8.0% | . | 6.3%
CN1C(=O)/C(=C/C=C/c2ccco2)C(=O)NC1=S
 : -1.0 | ? | 25.1µM* | -7.6% | 84.3%[activator]
O=C(O)CCCOc1ccc(Cl)cc1Cl
 : -8.7 | . | 8.6% | -1.1% | 8.4%
CCCN1CCC[C@@H]2Cc3cn[nH]c3C[C@H]21
 : . | . | -4.4%[60.1 µM] | 1.1% | .
CC(N)C(O)c1ccc(O)c(O)c1 (centres undefined)
 : . | . | 3.16µM*! | 0.3% | .
CN[C@@H](C)[C@@H](O)c1ccccc1
 : -10.3 | -11.8% | -13.7% | -4.8% | -1.7%
CN1[C@@H]2CC[C@H]1CC(O)C2 (some centres undefined)
 : . | . | -2.1%[12 µM] | 2.3%[29.3 µM] | .
CCCCCC[N+](=O)[O-]
 : -8.2 | . | -26.2% | . | -3.0%

From PubChem
